Screens: PubChem, several laboratories
Yeast UUG start: alters start codon recognition fidelity in yeast. S. cerevisiae UUG-firefly luciferase reporter, luminescence/redox ratio. activity score, % at 18.7 µM. 350,000 compounds, 0.13% hits. AID 602363;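 active = replicate mean at a twofold rise or more, about +100% in these data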;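 also: firefly luciferase made from a UUG start codon reports start codon fidelity; reporter light over untreated wells divided by growth signal over untreated wells; some hits fall short of that in this replicate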
CSC inhib: cancer stem cell inhibition. cancer stem cell-like cells viability, luminescence. inhibition, % at 7.5 µM. 300,000 compounds, 1.1% hits. AID 2717;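 active = mean at 75% or more and at least half the replicates too; inconclusive = mean and replicates disagree; tested in HMLE shEcad cells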;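 also: 0% = median of negative and 100% = median of positive control wells; the first replicate is given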
PABP FP inh: PABP-poly(A) binding inhibition; P11940; 290,000 compounds, 1% hits; AID 2014; PABP-poly(A) RNA binding, fluorescence polarization; inhibition, % at 35 µM;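 active = 50% or more with normal probe brightness, or confirmed in later tests; inconclusive = above 50% with abnormal brightness, or retests that disagree; inactive = below 50% or failed in later tests; about a fifth of its hits are not listed in these tables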;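 also: calls also rest on retests at 20 µM and on dose response follow-up; controls were probe without protein and protein plus probe with vehicle; some compounds called inactive have numbers as strong as hits; many hits fall short of the cut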
Rce1 inhib: inhibitors of yeast Ras-converting enzyme. yeast membranes, quenched prenylated peptide cleavage fluorescence. calls only. 290,000 compounds, 0.27% hits;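 active = fall in fluorescence gain of 50% or more versus controls, with final raw signal at or below 3038400; inconclusive = same 50% fall but final raw signal above 3038400; inactive = fall in fluorescence gain under 50%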;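 also: plate controls were neutral control wells for no effect and wells lacking membranes for full effect; tested at 10 µM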
Target sequence (Q03530 whole entry, looked up): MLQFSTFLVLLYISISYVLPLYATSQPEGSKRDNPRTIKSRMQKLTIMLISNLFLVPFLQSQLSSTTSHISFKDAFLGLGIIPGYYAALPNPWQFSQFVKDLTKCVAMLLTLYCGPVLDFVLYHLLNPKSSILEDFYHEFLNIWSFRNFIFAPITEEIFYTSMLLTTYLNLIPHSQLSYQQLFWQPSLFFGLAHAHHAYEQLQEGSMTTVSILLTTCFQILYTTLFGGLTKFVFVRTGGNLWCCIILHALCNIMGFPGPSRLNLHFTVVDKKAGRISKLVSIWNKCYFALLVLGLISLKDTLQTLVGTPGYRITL
eIF4H inh: inhibitors of RNA binding by human eIF4H | Q15056 | eIF4H fluorescence polarization binding assay | inhibition, % at 35 µM | 290,000 compounds, 0.94% hits;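 active = 50% or more with normal probe brightness, or confirmed in later tests; inconclusive = above 50% with abnormal brightness, or retests that disagree; inactive = below 50% or failed in later tests; about a fifth of its hits are not listed in these tables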;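 also: calls also rest on retests at 20 µM and on dose response follow-up; 0% = protein and probe with vehicle and 100% = probe without protein; strong numbers were not always called active; many hits fall short of the cut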
MT1-MMP act inh: inhibitors of human MT1-MMP activation. 360,000 compounds, 0.061% hits. HT1080 RFP-PRO-GFP cells, GFP/RFP ratio fluorescence, overnight; percent of plate control window, DMSO zero. GFP/RFP ratio change, % at 20 µM;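 active = GFP/RFP ratio change of at least 30% with cell ATP level not reduced by more than half and red fluorescence within 50% of control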; also: strong numbers were not always called active
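Assay system – RFP-PRO-GFP reporter HT1080 cells · Compound dosing – single dose of 20 µM compound, 1% DMSO final · Incubation – overnight compound exposure at 37 °C · Measure – GFP/RFP fluorescence ratio · Benchmarks – DMSO wells and RFP-L50D-GFP cells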
HIV Env fusion: blocks HIV Env-driven cell-cell fusion; inhibition, % at 12.3 µM; 360,000 compounds, 1.1% hits; HeLa-JRFL Env/CEM21 cell fusion, luciferase; AID 651610;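 active = mean replicate inhibition score of at least 50 and every replicate individually at or above 50; inconclusive = only one of the two criteria met; inactive = mean below 50 and not all replicates reaching 50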;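 also: 0% = plate neutral controls and 100% = maraviroc near 300 nM; one replicate is shown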
eIF4H inh retest: second read-out of eIF4H inh, no call of its own (marks repeat the call); inhibition, %; compound at 20 µM; confirmation average;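 mean of two retest wells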
PABP FP inh retest: further read-out of PABP FP inh, marked with its call; inhibition, %; compound at 20 µM; confirmation repeats;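 mean of two retest wells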
MT1-MMP act inh RFP: second read-out of MT1-MMP act inh, no call of its own (marks repeat the call); RFP signal change, %; measured here: RFP expression control read;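 0 = vehicle wells; hits needed this value within 50% of zero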
Numbers without * were called inactive. Rows were taken by chance. About 3% of those tested had a hit in this group.

For S=c1[nH]nc(-c2ccco2)n1/N=C/c1cccs1 the results were CSC inhib -10, PABP FP inh 21, Rce1 inhib inactive, eIF4H inh 1, MT1-MMP act inh 2, HIV Env fusion -12 and MT1-MMP act inh RFP 5.
Screening COc1ccccc1NC(=O)Cc1c(F)cccc1Cl returned Yeast UUG start -9, CSC inhib -1, PABP FP inh -3, Rce1 inhib inactive, eIF4H inh -6, MT1-MMP act inh 0, HIV Env fusion 12 and MT1-MMP act inh RFP 0.
O=C(NC1CCCCC1)C(c1ccnc2ccccc12)N1CCOCC1 (stereo not drawn) was read as Yeast UUG start -5, MT1-MMP act inh 4, HIV Env fusion -17 and MT1-MMP act inh RFP -1.
For O=C1/C(=C\c2ccsc2)NC(=S)N1c1ccccc1 the results were Yeast UUG start -24, CSC inhib 0, PABP FP inh -7, Rce1 inhib inactive, eIF4H inh 5, MT1-MMP act inh -4, HIV Env fusion 6 and MT1-MMP act inh RFP -9.
`CSCCC(NC(=O)c1ccccc1Br)C(=O)N1CCCC(C(F)(F)F)C1` (stereo not drawn) gave Yeast UUG start -6, CSC inhib -33, PABP FP inh 5, Rce1 inhib inactive, eIF4H inh -16, MT1-MMP act inh -1 and MT1-MMP act inh RFP 0.
For COC(=O)C(CC(=O)c1ccc(Cl)cc1)c1ccc(C)cc1 (stereo not drawn) the results were Yeast UUG start -14, PABP FP inh -11, Rce1 inhib inactive, eIF4H inh 3, MT1-MMP act inh -1 and MT1-MMP act inh RFP -7.
`Cc1cc2c(cc1S(=O)(=O)N1CCN(c3cccc(C)c3C)CC1)OCC(=O)N2` gave Yeast UUG start -15, CSC inhib 4, PABP FP inh 21, Rce1 inhib inactive, eIF4H inh 65, MT1-MMP act inh 1, HIV Env fusion 10, eIF4H inh retest -4, PABP FP inh retest 8 and MT1-MMP act inh RFP -3.
Screening COc1ccc(-n2c(C)cc(C(=O)CSc3ccc(NC(C)=O)cc3)c2C)cc1 returned Yeast UUG start -5, CSC inhib 169*, PABP FP inh 0, Rce1 inhib inactive, eIF4H inh -10, MT1-MMP act inh 1, HIV Env fusion -5 and MT1-MMP act inh RFP -6.
CCC(=O)Nc1nnc(CSCc2ccccc2)s1 was read as Yeast UUG start -5, CSC inhib -12, PABP FP inh -11, Rce1 inhib inactive, eIF4H inh 2, MT1-MMP act inh 0 and MT1-MMP act inh RFP 3.
`COc1ccc(-c2noc(N3CCCC(C(=O)Nc4cc(F)ccc4F)C3)n2)cc1` (stereo not drawn) gave Yeast UUG start -9, PABP FP inh -4, Rce1 inhib inactive, eIF4H inh -20, MT1-MMP act inh 1 and MT1-MMP act inh RFP -4.
CS(=O)(=O)N(Cc1ccccc1)c1ccc(C(=O)NCc2cccnc2)cc1 was read as Yeast UUG start -13, CSC inhib -14, PABP FP inh -4, eIF4H inh 2, MT1-MMP act inh 2, HIV Env fusion 0 and MT1-MMP act inh RFP -1.
O=C1CC(C(=O)Nc2ccccc2)C2(CCCCC2)O1 (stereo not drawn) was read as CSC inhib -2, PABP FP inh 3, Rce1 inhib inactive, eIF4H inh 6, MT1-MMP act inh 1 and MT1-MMP act inh RFP -1.
Screening COCCNC(=S)N(CCc1c(C)[nH]c2ccccc12)Cc1cccnc1 returned Yeast UUG start -4, CSC inhib -7, PABP FP inh -4, Rce1 inhib inactive, eIF4H inh -7, MT1-MMP act inh -4, HIV Env fusion -10 and MT1-MMP act inh RFP 0.
Screening Cc1ccc2nc(SCC(=O)NC3CCS(=O)(=O)C3)[nH]c2c1 (stereo not drawn) returned Yeast UUG start -6, CSC inhib -21, MT1-MMP act inh -2 and MT1-MMP act inh RFP -2.
CSc1ccc(/C=C(\C(=O)O)c2ccc(S(=O)(=O)N3CCCCC3)s2)cc1 was read as CSC inhib -10, PABP FP inh -1, Rce1 inhib inactive, eIF4H inh 13, MT1-MMP act inh 3, HIV Env fusion 12 and MT1-MMP act inh RFP 0.
Screening COc1ccc2c(c1)OC[C@H]1[C@H]2N2C(=O)CN(C)C(=O)[C@@]2(C)[C@H]1c1ccccc1 returned Yeast UUG start 5, CSC inhib -8, MT1-MMP act inh 0, HIV Env fusion -1 and MT1-MMP act inh RFP -2.
For CCOC(=O)c1c(C)[nH]c(C)c1S(=O)(=O)N(C)CC(=O)Nc1ccc(C)cn1 the results were Yeast UUG start 2, CSC inhib -4, PABP FP inh -2, Rce1 inhib inactive, eIF4H inh -4, MT1-MMP act inh 0, HIV Env fusion -3 and MT1-MMP act inh RFP 0.
For COc1cc(-c2cc3nc(NCc4ccco4)ccn3n2)cc(OC)c1OC the results were Yeast UUG start -11, MT1-MMP act inh 17, HIV Env fusion -51 and MT1-MMP act inh RFP 1.
O=C(CNC(=O)c1ccccc1Br)NCCSc1ccc(Br)cc1 was read as Yeast UUG start 4, CSC inhib -3, Rce1 inhib inactive, MT1-MMP act inh -1, HIV Env fusion -51 and MT1-MMP act inh RFP -4.
For O=C(Nc1ccc(NC(=S)NC(=O)c2cccs2)cc1)c1ccco1 the results were Yeast UUG start -18, CSC inhib 1, PABP FP inh -44, Rce1 inhib inactive, eIF4H inh -36, MT1-MMP act inh 4, HIV Env fusion 1 and MT1-MMP act inh RFP -2.
Screening COc1ccc(N=C2SC(C(=O)Nc3ccc(C(=O)O)cc3)CC(=O)N2Cc2cccs2)cc1 (stereo not drawn) returned Yeast UUG start -9, CSC inhib -13, PABP FP inh 10, Rce1 inhib inactive, eIF4H inh -1, MT1-MMP act inh 2, HIV Env fusion -13 and MT1-MMP act inh RFP -3.
For Cc1ccc(NC(=O)CSc2nnc3c(n2)[nH]c2ccccc23)cc1 the results were Yeast UUG start -13, CSC inhib -15, PABP FP inh 3, Rce1 inhib inactive, eIF4H inh -1, MT1-MMP act inh -2, HIV Env fusion 3 and MT1-MMP act inh RFP 2.
For Cc1ccc2c(c1)N(C(=O)CCC(=O)NCCN1CCOCC1)CCO2 the results were Yeast UUG start -9, PABP FP inh 2, Rce1 inhib inactive, eIF4H inh -5, MT1-MMP act inh 1, HIV Env fusion -17 and MT1-MMP act inh RFP 9.
Screening O=C(NC1CCCC1)C(c1cccnc1)N(Cc1ccc(F)cc1)C(=O)c1csnn1 (stereo not drawn) returned Yeast UUG start -14, CSC inhib -18, PABP FP inh 6, Rce1 inhib inactive, eIF4H inh -8, MT1-MMP act inh 0, HIV Env fusion 4 and MT1-MMP act inh RFP 5.
Screening COc1cccc(N(CC(=O)NCc2cccnc2)S(C)(=O)=O)c1 returned Yeast UUG start -21, CSC inhib -8, PABP FP inh -3, Rce1 inhib inactive, eIF4H inh -13, MT1-MMP act inh -1, HIV Env fusion -14 and MT1-MMP act inh RFP 7.
O=C(COc1cc(F)ccc1[N+](=O)[O-])NCCN1C(=O)CSC1=O was read as Yeast UUG start -22, CSC inhib -10, MT1-MMP act inh -1, HIV Env fusion -26 and MT1-MMP act inh RFP 7.
CC(=O)c1ccc(NC(=S)N2CCN(C(=S)Nc3ccc(C(C)=O)cc3)C(C)C2)cc1 (stereo not drawn) was read as CSC inhib -4, PABP FP inh 4, Rce1 inhib inactive, eIF4H inh 0, MT1-MMP act inh 1, HIV Env fusion 5 and MT1-MMP act inh RFP -3.
`CC(C)(C)OC(=O)NCCCC[C@H](NC(=O)c1[nH]cnc1C(=O)Nc1ccc(CNC(=O)OC(C)(C)C)cc1)C(=O)OC(C)(C)C` gave CSC inhib -20, PABP FP inh -6, eIF4H inh 10 and HIV Env fusion 72*.
`COC(=O)C1=C(C)N(Cc2ccccc2)C(=O)N[C@H]1c1cccc(C(F)(F)F)c1` gave Yeast UUG start -2, CSC inhib 23, PABP FP inh 14, Rce1 inhib inactive, eIF4H inh 7, MT1-MMP act inh 2, HIV Env fusion 11 and MT1-MMP act inh RFP -2.
COC(=O)c1ccc(S(=O)(=O)NCc2ccco2)n1C was read as CSC inhib -12, PABP FP inh -1, eIF4H inh -2, MT1-MMP act inh -1, HIV Env fusion 1 and MT1-MMP act inh RFP 1.
`Cc1cccc(NC(=O)COC(=O)CN2C(=O)c3ccccc3C2=O)c1` gave Yeast UUG start -8, MT1-MMP act inh 0, HIV Env fusion 8 and MT1-MMP act inh RFP 1.
`CSc1ccccc1C(=O)Nc1ncn[nH]1` gave Yeast UUG start -28, CSC inhib 2, PABP FP inh -3, Rce1 inhib inactive, eIF4H inh -19, MT1-MMP act inh -2, HIV Env fusion 1 and MT1-MMP act inh RFP 2.
For O=C(O)c1cc(O)ccc1NC(=O)C(c1ccccc1)c1ccccc1 the results were Yeast UUG start -11, CSC inhib inconclusive, PABP FP inh 2, Rce1 inhib inactive, eIF4H inh 3, MT1-MMP act inh 0, HIV Env fusion 6 and MT1-MMP act inh RFP 9.
`OC(c1cccc(CN2CCCCC2)c1)c1ncc(-c2cccc3ccccc23)[nH]1` (stereo not drawn) gave Yeast UUG start -23, MT1-MMP act inh 0, HIV Env fusion -18 and MT1-MMP act inh RFP -2.
For COc1ccc(-c2nc(CN3CCC(C(=O)NC4CC4)CC3)c(C)o2)cc1OC the results were Yeast UUG start -6, CSC inhib -14, PABP FP inh 5, Rce1 inhib inactive, eIF4H inh -6, MT1-MMP act inh -2, HIV Env fusion -1 and MT1-MMP act inh RFP 2.
O=C(CNC(=O)c1ccco1)N/N=C/c1ccc(C(=O)O)cc1 was read as Yeast UUG start -3, PABP FP inh 9, Rce1 inhib inactive, eIF4H inh 2, MT1-MMP act inh 0, HIV Env fusion 2 and MT1-MMP act inh RFP 1.
`CC1C(=NO)C(C)C(c2ccccc2)NC1c1ccccc1` (stereo not drawn) gave Yeast UUG start 7, CSC inhib 2, PABP FP inh -14, Rce1 inhib inactive, eIF4H inh -11, MT1-MMP act inh 4, HIV Env fusion -36 and MT1-MMP act inh RFP 0.
For O=C1CS/C(=N/N=C/c2ccc(OS(=O)(=O)c3ccccc3)cc2)N1 the results were CSC inhib -7, PABP FP inh 1, Rce1 inhib inactive, eIF4H inh -8, MT1-MMP act inh -1, HIV Env fusion -1 and MT1-MMP act inh RFP -2.
Cc1ccc2c(c1)c1c3n2CCN(CCC#N)C3CCC1 (stereo not drawn) was read as Yeast UUG start -18, MT1-MMP act inh -1, HIV Env fusion 72* and MT1-MMP act inh RFP 3.
`O=C(c1cccc(C(F)(F)F)c1)N1CCN(S(=O)(=O)c2ccc(Cl)s2)CC1` gave Yeast UUG start 9, CSC inhib -5, PABP FP inh 18, Rce1 inhib inactive, eIF4H inh -4, MT1-MMP act inh -4, HIV Env fusion -14 and MT1-MMP act inh RFP -1.
Screening COc1ccc(S(=O)(=O)N2CCC(Cc3ccccc3)CC2)cc1C(N)=O returned Yeast UUG start 7, CSC inhib 38, PABP FP inh 0, Rce1 inhib inactive, eIF4H inh 3, MT1-MMP act inh -1, HIV Env fusion 0 and MT1-MMP act inh RFP -10.
Cc1nc2cc(-n3ccc(=O)cc3)ccc2n1-c1ccccc1 was read as Yeast UUG start -11, CSC inhib 13, PABP FP inh -5, Rce1 inhib inactive, eIF4H inh 4, MT1-MMP act inh -1 and MT1-MMP act inh RFP 3.
Screening CC(C)c1cc(N2CCOCC2)n2ncc(-c3ccccc3)c2n1 returned Yeast UUG start 0, CSC inhib 1, PABP FP inh -3, Rce1 inhib inactive, eIF4H inh 1, MT1-MMP act inh -4, HIV Env fusion 30 and MT1-MMP act inh RFP -3.
